HIV TAR-Tat: HIV-1 TAR-Tat binding disruption. HIV-1 TAR RNA, Tat peptide displacement FRET; active compounds read high. z-score (concentration not given with the values). actives 0.6% (n = 100,000). AID 1259389;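 also: score is relative to mean and SD of negative controls; some compounds called inactive have numbers as strong as hits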
CDC25B-CDK2 inh: human CDC25B-CDK2/CyclinA binding inhibition; HTRF CDC25B-CDK2/CyclinA binding, anti-His/anti-Flag; active compounds read high; z-score (test concentration not listed); actives 0.72% (n = 94,000); AID 1259370;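 also: score is relative to mean and SD of negative controls; strong numbers were not always called active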
Active calls of the source: *; / = not tested or not shown.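 The calls were made as follows: active = z-score from 3 up in half or more of its runs; inactive = the rest.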 No enrichment for hits; 0.89% or so of the library scored in one or more.

Screens in order: HIV TAR-Tat, CDC25B-CDK2 inh
1: CCS(=O)(=O)c1ccc(-c2cccc(NS(=O)(=O)c3ccc(C)cc3C)c2)nn1
  -0.58, /
2: CC(C)Nc1nc2c(S(=O)(=O)c3ccc(Cl)cc3)nnn2c2ccsc12
  7, /
3: CCOC(=O)CCn1cc(F)c(=O)[nH]c1=O
  /, 0.13
4: NS(=O)(=O)c1ccc(CCNC(=O)C2=Cc3sc4c(c3CS2)CCCC4)cc1
  -0.3, /
5: CC(C)c1ccc(-c2nc(C(N)=O)c3[nH]c(=O)n(CC4CCCO4)c3n2)cc1 (stereo not drawn)
  0.61, /
6: CC1CCCCN1CCNc1ncnc2onc(-c3ccc(Cl)cc3)c12 (stereo not drawn)
  0.94, -1.5
7: Cn1cnc(S(=O)(=O)N2CCC(C(=O)N3CCc4ccccc43)CC2)c1
  0.63, /
8: S=C(N/N=C/c1ccco1)NC1CC2CCC1C2 (stereo not drawn)
  /, -0.37
9: CC(CCc1ccco1)NC(=O)c1noc2c1CCc1sccc1-2 (stereo not drawn)
  1.1, /
10: Cc1nn(-c2ccc(=O)[nH]n2)c(C)c1CCC(=O)O
  1.4, -0.39
11: COc1ccc2[nH]c(C)c(CN(C)C3CCN(C)CC3)c(=O)c2c1
  /, -2
12: O=C(Cn1ncn2cccc2c1=O)NC1CCCCC1
  1.8, -2.4
13: COCCCNC(=O)NC(C)c1c(-n2cccc2)sc2c1CCCC2 (stereo not drawn)
  2, -1.4
14: O=C(COc1cccc2cccnc12)N1CCc2ccccc2C1
  -0.08, -0.89
15: COc1cccc(=O)c2c(C)n(-c3ccc(C(=O)O)cc3)c(C)c12
  -1.5, 0.6
16: Cc1ccc(C)c(CSc2nc3ncccc3[nH]2)c1
  0.77, /
17: O=C(Nc1ccc2c(c1)OCCO2)C1CCn2c(nc3ccccc32)C1 (stereo not drawn)
  1.4, /
18: COc1ccc(NCCNc2cc(C)nc3c2ccc2ccccc23)cc1
  /, 0.01
19: CCC(O)c1nc2ccccc2n1Cc1cccc(C)c1 (stereo not drawn)
  0.95, -0.65
20: COc1ccc2cc(/C(C)=N/OC(=O)Nc3ccccc3)ccc2c1
  /, -1.2

Other results.
Screens in order: HIV TAR-Tat, CDC25B-CDK2 inh
21: CCOC(=O)c1noc2ncnc(N3CCCC3)c12
  0.58, /
22: COC(=O)c1sccc1NC(=O)c1sc2nc3n(c(=O)c2c1C)CCCC3
  2.9, /
23: CC(=O)c1sc2sc(Br)c(C)c2c1C
  /, -1.8
24: CC(=O)Nc1nc2n(n1)C(=O)CC(c1ccccc1)=N2
  /, -1.9
25: Cc1ccc(CN[C@H]2CS(=O)(=O)C[C@@H]2S(=O)(=O)c2ccccc2)cc1
  0.11, -0.85
26: COc1ccc(-c2noc(CN(C)S(=O)(=O)c3ccc(Br)cc3)n2)cc1
  -0.88, -1.2
27: Cc1ccc(-c2n[nH]c(=O)c3ccccc23)cc1S(=O)(=O)Nn1cnnc1
  /, -2.6
28: C=CCn1c(C2CC(=O)N(Cc3ccccc3)C2)nc2ccccc21 (stereo not drawn)
  1.6, -0.67
29: Cc1ccn2cc(-c3cccc(S(=O)(=O)N(C)C)c3)nc2c1
  0.17, -0.26
30: O=C(NCCCc1ccccc1)c1cnc2sc3c(n2c1=O)CCCC3
  1.2, /
31: OCCn1c(-c2ccccc2)cn2c3ccccc3nc12
  -0.46, 0.07
32: COc1ccc(OC)c(CNc2nc3ccccc3n2C)c1
  0, -0.96
33: O=C1c2[nH]nc(-c3ccccc3O)c2C(c2ccc(O)cc2)N1Cc1ccc(F)cc1 (stereo not drawn)
  0.63, 1.1
34: C=CCOc1ccc(-c2nc3c(c(=O)[nH]2)Cc2cc(Cl)ccc2O3)cc1
  -9.5, -2.5
35: O=C(NC1CCCC1)c1cc(-c2ccc(Br)cc2)n[nH]1
  -1, /
36: O=C(CCCn1cnc([N+](=O)[O-])n1)Nc1cccc(Cl)c1
  0.99, -1.6
37: Cc1[nH]c2ccccc2c1C(c1ccncc1)c1c(C)[nH]c2ccccc12
  0.64, -1.1
38: Cc1nc(N2CCCCC2)cc(N2CCN(S(=O)(=O)c3ccccc3)CC2)n1
  0.34, -1.5
39: COc1ccc(NC2CC(=O)N(c3cccc(Br)c3)C2=O)cc1 (stereo not drawn)
  1.3, /
40: CCOC(=O)c1cc(S(=O)(=O)N(C)CC(=O)N2CCC(N3CCCCC3)CC2)cn1C
  0.02, /

Compounds from the list above containing fluorine:
Screens in order: HIV TAR-Tat, CDC25B-CDK2 inh
3: CCOC(=O)CCn1cc(F)c(=O)[nH]c1=O
  /, 0.13
33: O=C1c2[nH]nc(-c3ccccc3O)c2C(c2ccc(O)cc2)N1Cc1ccc(F)cc1 (stereo not drawn)
  0.63, 1.1

The list continues:
Screens in order: HIV TAR-Tat, CDC25B-CDK2 inh
41: CCn1c(/C=C/c2c(C)n(C)c3ccccc23)nc2ccccc2c1=O
  0.84, -0.87
42: COc1ccccc1C(=O)OCc1cc(=O)n2cc(C)sc2n1
  0.48, /
43: O=C(CCCCCn1c(=O)[nH]c2ccsc2c1=O)NCc1ccc2c(c1)OCO2
  -0.2, -2.2
44: CCn1c(=O)[nH]c2cc(-c3noc(COc4ccc(Cl)cc4C)n3)ccc21
  0.1, /
45: O=S1(=O)C[C@H](N2CCOCC2)[C@@H](S(=O)(=O)c2ccc(F)cc2)C1
  2.1, -2.2
46: CCCOc1ccc(C2c3c(oc4ccccc4c3=O)C(=O)N2Cc2ccc3c(c2)OCO3)cc1 (stereo not drawn)
  -1.1, -0.32
47: Cc1ccc(CN(C(=O)c2ccc(F)cc2)C2CCS(=O)(=O)C2)o1 (stereo not drawn)
  2.2, -1.3
48: c1coc(-c2cc(-c3nc(-c4ccncc4)no3)[nH]n2)c1
  -1.1, /
49: CNc1nc(N)c([N+](=O)[O-])c(Nc2cccc(Cl)c2)n1
  1.6, /
50: O=C(CN1N=NC2C(=O)N(c3cccc(Cl)c3)C(=O)C21)Nc1ccc(Br)cc1 (stereo not drawn)
  /, 0.17
51: COc1ccc2nc3oc(C(=O)NCc4ccco4)cc3cc2c1
  /, -0.93
52: CC(C)CC1N=C2c3ccccc3N=C(SCC(=O)Nc3ccccc3)N2C1=O (stereo not drawn)
  -0.09, /
53: CCCn1c2ccccc2c2cnn(CC(=O)OC)c(=O)c21
  0.99, -0.46
54: CC(C)CCOc1cccc(C2c3c(-c4ccccc4O)n[nH]c3C(=O)N2CCO)c1 (stereo not drawn)
  -0.87, -2.2
55: Cc1c(Cl)cccc1-c1ccc(CNCCCSc2nnnn2C)o1
  1.1, -1.8
56: CS(=O)(=O)c1nc(S(=O)(=O)c2ccc(Cl)cc2)c(NCCCN2CCCC2=O)s1
  0.54, -0.91
57: O=C(Nc1ccccn1)c1cc(-c2ccccc2)c(C(F)(F)F)s1
  /, -1.7
58: CCOC(=O)c1c(S(=O)(=O)N(C)c2ccc(OCC)cc2)c(C)n(C)c1C
  0.29, /
59: Nc1nc(N2CCCC2)nc(NCc2ccccc2)c1[N+](=O)[O-]
  1.4, /
60: OCc1cnc(SCc2ccccc2F)n1Cc1ccc(F)cc1
  -1, /

The results go on.
Screens in order: HIV TAR-Tat, CDC25B-CDK2 inh
61: CCCCN(Cc1ccco1)C(=O)c1sc2nc3n(c(=O)c2c1C)CCCCC3
  0.91, /
62: CCc1ccc(C2c3c(oc4ccccc4c3=O)C(=O)N2CCCN(C)C)cc1 (stereo not drawn)
  -0.24, -1.2
63: COc1ccc(C2Oc3ccccc3C3CC(c4ccccc4O)=NN32)cc1OC (stereo not drawn)
  -0.41, -1.4
64: Fc1ccccc1-c1noc(Nc2ccc3c(c2)OCO3)n1
  1.5, /
65: O=C(CCCc1nnc2c(=O)n(-c3cccc(F)c3)ccn12)Nc1cccc(F)c1
  2, /
66: O=c1ccc(-c2ccccc2)nn1Cc1nnc(SCc2ccccc2F)o1
  1.1, /
67: Cc1nn(C)c2c1c(C(F)(F)F)cc(=O)n2Cc1ccccn1
  0.28, /
68: CCCC(=O)Nc1nc2nc(C)c(Cl)c(C)n2n1
  0.78, -2.2
69: COc1ccc(-c2cc(C)no2)cc1S(=O)(=O)N1CCOCC1
  0.91, /
70: Clc1ccccc1CN1CCc2nc(Nc3ccc4c(c3)OCO4)ncc2C1
  1.5, /
71: O=C1NC2C=CC1C1C(=O)N(c3ccccc3)C(=O)C21 (stereo not drawn)
  /, -0.28
72: Cc1nc(-c2cccs2)c(CC(=O)NC(C)C)s1
  -1.4, -1.4
73: CCNC(=O)c1c(NC(=O)Cc2coc3cc(C)cc(C)c23)sc2c1CCCC2
  0.44, -2.2
74: O=C(NC(=O)c1ccc(-c2cccs2)s1)SCc1cccs1
  /, -3.1
75: Brc1ccccc1CN1CCN(Cc2ccco2)CC1
  0.37, -1.4
76: CSc1ccc(C2Oc3nc(SC)nnc3-c3ccccc3N2C(C)=O)cc1 (stereo not drawn)
  0, 1.3
77: CCOc1ccc2nc(NC3=NC(CC(=O)O)C(=O)N3)nc(C)c2c1 (stereo not drawn)
  /, -1.5
78: O=S(=O)(CCN(C1CCCCC1)S(=O)(=O)c1ccc(Br)cc1)N1CCNCC1
  2.9, /
79: Cc1cc(S(=O)(=O)n2nc(-c3ccc(Cl)cc3)cc2N)ccc1F
  0.94, -0.67
80: CC(=O)NC1=NN(C(C)=O)C(c2ccc(Cl)cc2)S1 (stereo not drawn)
  -2.5, -0.18

Next part.
Screens in order: HIV TAR-Tat, CDC25B-CDK2 inh
81: Cc1nc(-c2ccc(S(=O)(=O)NCc3ccccc3)cc2)co1
  0.23, /
82: Cc1cc(=O)[nH]c(NCc2ccccc2)n1
  0.13, -1.6
83: CCCC1(CC)NC(=S)N(c2ccccc2)N1 (stereo not drawn)
  /, -1.6
84: CN(c1nnc(NC(=O)Nc2ccc(F)cc2)s1)C1CCCCC1
  2, -1.3
85: N#Cc1c(NC(=O)c2ccc3c(c2)OCCO3)sc2c1CCCCC2
  0.41, /
86: CCCc1nn(C(=O)c2ccco2)cc1C(=O)OCC
  /, -1.4
87: CCN(CC)C(=O)C1CCN(S(=O)(=O)c2ccc3c(c2)CCCN3C(=O)C2CCC2)CC1
  0.84, /
88: CCCCCCCC1C(C#N)=C(N)OC2=C1C(=O)CC(C)(C)C2 (stereo not drawn)
  /, -0.93
89: O=C1NCc2ccc(S(=O)(=O)NC3CCCc4ccccc43)cc21 (stereo not drawn)
  0.31, /
90: CCN(CC)S(=O)(=O)c1ccc2c(c1)CC(C(=O)NCc1cccs1)N2C(C)=O (stereo not drawn)
  0.38, /
91: Cc1onc(-c2ccncc2)c1C(=O)O
  0.81, /
92: COC(=O)c1ccc(S(=O)(=O)Oc2ccccc2N2CCOCC2)o1
  /, -0.13
93: CN1CCN(C(=O)C2CCN(S(=O)(=O)c3ccc4c(c3)oc(=O)n4C)CC2)CC1
  /, -0.09
94: Cc1cccc(Nc2nc(-c3ccc(O)c(O)c3)cs2)n1
  16*, -0.54
95: Cc1cccn2c(=O)c3cc(C#N)c(=O)n(Cc4ccccc4)c3nc12
  2.2, 0.04
96: Cc1nc2sc(C(c3ccc(Cl)cc3)N3CCN(C)CC3)c(O)n2n1 (stereo not drawn)
  /, -1.1
97: CCCS(=O)(=O)N1CCC(=O)CC1
  -0.57, -0.45
98: c1ccc(-c2nnc(Cc3ccc4c(c3)OCO4)o2)cc1
  0.14, 0.84
99: COC(=O)c1sc2ccccc2c1S(=O)(=O)Nc1cccc(SC)c1
  -1.2, /
100: Cc1ccccc1C1CC(=O)NC2=C1C(=O)CC(c1ccccc1Cl)C2 (stereo not drawn)
  1.8, -0.39

Looked up one by one from the list above, 2 records:
Screens in order: HIV TAR-Tat, CDC25B-CDK2 inh
91: Cc1onc(-c2ccncc2)c1C(=O)O
  0.81, /
92: COC(=O)c1ccc(S(=O)(=O)Oc2ccccc2N2CCOCC2)o1
  /, -0.13

More records
Screens in order: HIV TAR-Tat, CDC25B-CDK2 inh
101: CCCCNS(=O)(=O)c1ccc(OCC)c(-c2nc(C)no2)c1
  1.6, -1.1
102: O=C(c1ccc2c(=O)n3c(nc2c1)CCCC3)N1CCc2ccccc21
  0.72, /
103: C=CCc1ccccc1OCc1cc(=O)n2c(-c3ccccc3)csc2n1
  0.46, -0.21
104: CCC1CSC(Nc2c(C)cccc2C)=N1 (stereo not drawn)
  /, -0.58
105: O=C(Nc1ncc(Br)s1)C1CCCN1S(=O)(=O)c1cccc2cccnc12 (stereo not drawn)
  /, -2.5
106: COC(=O)CSC1=NS(=O)(=O)c2cc(F)ccc2N1
  0.47, /
107: O=C(NNc1ccccc1)c1cc(-c2ccc(Cl)cc2)oc1C(F)(F)F
  /, 0.4
108: NC(=O)C1CCN(c2c(-c3ccccc3)c(=O)c2=O)CC1
  1.9, /
109: O=C1c2cccnc2C(=O)N1Cc1ccc(S(=O)(=O)N2CCOc3ccccc32)cc1
  1, /
110: Cc1c(C(=O)NCc2ccco2)oc2ccc3c(c12)C(=O)CC1(CCC(C)CC1)O3 (stereo not drawn)
  1, -1.9
111: C=CCNC(=O)c1sc(=S)n2c1[nH]c(=O)c1ccc(C(=O)OC)cc12
  -0.19, /
112: COc1ccccc1N1CCN(C2CCN(CC3CC4C=CC3C4)CC2)CC1 (stereo not drawn)
  /, 0.04
113: Cc1ccc(C)c(-c2ccc(=O)n(Cc3cc(=O)n4ccccc4n3)n2)c1
  1.6, 1.1
114: Cc1nn(C(C)C(=O)N2CCCCC2)c(=O)c2c1sc1ccccc12 (stereo not drawn)
  2.3, 3.2

Full records, quoted from the list. Order of values: HIV TAR-Tat | CDC25B-CDK2 inh
Record of CCC1CSC(Nc2c(C)cccc2C)=N1 (stereo not drawn) = / | -0.58
Record of O=C(Nc1ncc(Br)s1)C1CCCN1S(=O)(=O)c1cccc2cccnc12 (stereo not drawn) = / | -2.5

Source: PubChem BioAssay (Center for Chemical Genomics, University of Michigan)
